FGF22 binding – binders of human FGF22 protein, primary screen, FGF22 synaptogenesis inhibitor project, biophysical, thermal shift, single point; calls only at 9.99 µM; actives 1.5% (n = 340,000); AID 651658, 2012; Fibroblast growth factor 22 (Homo sapiens), Q9HCT0; recombinant FGF22 thermal shift, SYPRO orange fluorescence; percent of sucrose octasulfate shift, DMSO zero;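 active = melting point raised past a set limit in the mean and every replicate; three in four hits are not shown here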
Target sequence (Q9HCT0 whole entry, looked up): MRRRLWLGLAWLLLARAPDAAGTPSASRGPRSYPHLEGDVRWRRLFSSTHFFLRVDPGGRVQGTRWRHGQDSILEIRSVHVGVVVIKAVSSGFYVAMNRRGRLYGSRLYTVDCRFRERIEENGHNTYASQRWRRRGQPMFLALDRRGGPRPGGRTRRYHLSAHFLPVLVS
Calls only; i = inactive. This is a subset; the hit share may differ from the screen's.

SMILES	FGF22 binding
O=C(c1cccc(F)c1)N1CCCCN2[C@H](CO)[C@@H](c3ccc(/C=C/c4ccccc4)cc3)[C@H]2C1	i
COc1ccc(N=C2Sc3ccccc3[C@@H]3C[C@H]4[C@H](CON4C)CN23)c(OC)c1	i
CO[C@H]1CC[C@H]2CCOc3ccc(C#N)cc3C(=O)N(C)C[C@@H](OC)[C@H](C)C(=O)N(C)C[C@@H]1O2	i
OC[C@@H]1[C@H](c2ccc(C3=CCCC3)cc2)[C@@H]2CN(CCC(F)(F)F)CCCCN12	i
C[C@@H]1CN([C@@H](C)CO)C(=O)c2cc(NC(=O)C3CC3)ccc2O[C@@H]1CN(C)Cc1ccc(-c2ccccc2)cc1	i
COc1ccc2c3c([nH]c2c1)[C@@H](CO)N(Cc1ccccc1)CC31CN(C(=O)NC(C)C)C1	i
C[C@@H]1CN([C@@H](C)CO)S(=O)(=O)c2ccc(/C=C/c3ccccc3)cc2O[C@H]1CN(C)Cc1cncnc1	i
Cc1noc(C)c1NC(=O)N(C)C[C@H]1OCCCC[C@@H](C)Oc2ccc(NS(=O)(=O)c3cn(C)cn3)cc2C(=O)N([C@H](C)CO)C[C@@H]1C	i
O=C(Nc1cccc(F)c1)N1C[C@H]2[C@@H](c3ccccc31)[C@H](CO)N2C(=O)Cc1ccccc1	i
C[C@@H]1CN([C@@H](C)CO)S(=O)(=O)c2ccc(C#CCC3CCCC3)cc2O[C@@H]1CN(C)C(=O)CN(C)C	i
C[C@H](CO)N1C[C@H](C)[C@@H](CN(C)Cc2ccc(C(=O)Nc3ccccc3N)cc2)Oc2c(NC(=O)c3ccncc3)cccc2C1=O	i
C[C@@H]1CN([C@@H](C)CO)S(=O)(=O)c2ccc(C3=CCCC3)cc2O[C@H]1CN(C)C(=O)Nc1ccc2c(c1)OCO2	i

7 compounds picked at random from the list so far, as already listed:
SMILES	FGF22 binding
C[C@@H]1CN([C@@H](C)CO)S(=O)(=O)c2ccc(/C=C/c3ccccc3)cc2O[C@H]1CN(C)Cc1cncnc1	i
C[C@@H]1CN([C@@H](C)CO)S(=O)(=O)c2ccc(C#CCC3CCCC3)cc2O[C@@H]1CN(C)C(=O)CN(C)C	i
COc1ccc(N=C2Sc3ccccc3[C@@H]3C[C@H]4[C@H](CON4C)CN23)c(OC)c1	i
CO[C@H]1CC[C@H]2CCOc3ccc(C#N)cc3C(=O)N(C)C[C@@H](OC)[C@H](C)C(=O)N(C)C[C@@H]1O2	i
Cc1noc(C)c1NC(=O)N(C)C[C@H]1OCCCC[C@@H](C)Oc2ccc(NS(=O)(=O)c3cn(C)cn3)cc2C(=O)N([C@H](C)CO)C[C@@H]1C	i
C[C@@H]1CN([C@@H](C)CO)S(=O)(=O)c2ccc(C3=CCCC3)cc2O[C@H]1CN(C)C(=O)Nc1ccc2c(c1)OCO2	i
O=C(c1cccc(F)c1)N1CCCCN2[C@H](CO)[C@@H](c3ccc(/C=C/c4ccccc4)cc3)[C@H]2C1	i

Additional entries follow.
SMILES	FGF22 binding
CCCNC(=O)N[C@H]1CC[C@H](CCn2cc(C3CCCCC3)nn2)O[C@@H]1CO	i
COc1ccccc1S(=O)(=O)N1CC[C@@H]2[C@H]1c1cc(-c3ccccc3F)ccc1N[C@@H]2CO	i
O=C(c1ccccn1)N1C[C@@H]2[C@H](c3ccccc31)[C@@H](CO)N2C(=O)C1CCCCC1	i
CO[C@@H]1CN(C)C(=O)c2ccc(NC(=O)C3CCCCC3)cc2OC[C@@H](C)N(Cc2cccnc2)C[C@H]1C	i
Cc1noc(C)c1NC(=O)Nc1ccc2c(c1)CC(=O)N([C@@H](C)CO)C[C@@H](C)[C@H](CN(C)C)O2	i
C[C@@H]1CCCCO[C@@H](CN(C)C(=O)Nc2ccc(C(F)(F)F)cc2)[C@@H](C)CN([C@@H](C)CO)C(=O)c2cc(NC(=O)C3CCCCC3)ccc2O1	i
C[C@@H]1CN([C@@H](C)CO)C(=O)c2cc(-c3ccccc3)cnc2O[C@H]1CN(C)C(=O)Cc1ccccn1	i
CN(C)C(=O)c1cccc(-c2ccc([C@H]3[C@@H](CO)N4CCCCN(S(C)(=O)=O)C[C@@H]34)cc2)c1	i
O=C(NCC[C@@H]1CC[C@H](NC(=O)C2CCC2)[C@H](CO)O1)c1ccc(F)cc1	i
Cc1noc(C)c1S(=O)(=O)N(C)C[C@@H]1Oc2ccc(NS(=O)(=O)c3ccc(F)cc3)cc2CC(=O)N([C@@H](C)CO)C[C@H]1C	i
CN(C)C(=O)C[C@@H]1C=C[C@H](NC(=O)NC2CCCC2)[C@H](CO)O1	i
O=C(c1ccncc1)N1CC[C@H]2[C@H](CO)Nc3ccc(-c4ccc(F)cc4)cc3[C@H]21	i
CO[C@H]1CN(C)C(=O)c2cc(NS(=O)(=O)CC(F)(F)F)ccc2OC[C@H](C)NC[C@H]1C	i
C[C@H]1CN([C@@H](C)CO)C(=O)c2cc(NC(=O)Nc3cccc4ccccc34)ccc2O[C@@H]1CN(C)C(=O)Nc1ccc(C(F)(F)F)cc1	i
C[C@H](CO)N1C[C@H](C)[C@H](CN(C)C(=O)Nc2ccc(C(F)(F)F)cc2)Oc2ccc(NC(=O)C3CCCCC3)cc2C1=O	i
CNC[C@H]1Oc2c(NC(=O)c3cc(C)nn3C)cccc2C(=O)N([C@@H](C)CO)C[C@H]1C	i
COc1ccc(C(=O)Nc2ccc3c(c2)C(=O)N(C)C[C@@H](OC)[C@H](C)CN(C(C)=O)[C@H](C)CO3)cc1	i
O=C(NCC[C@H]1CC[C@@H](NC(=O)C2CC2)[C@@H](CO)O1)Nc1ccc(Cl)cc1	i
C[C@@H]1CN([C@@H](C)CO)C(=O)c2cc(NC(=O)Nc3ccc(F)cc3)ccc2O[C@@H](C)CCCCO[C@H]1CN(C)C(=O)Nc1cccc2ccccc12	i
COc1ccc(NC(=O)N(C)C[C@@H]2Oc3ncc(C#CC(C)C)cc3C(=O)N([C@H](C)CO)C[C@@H]2C)cc1	i
C(=C\c1ccc(C2[C@H]3CNC[C@@H]2N3Cc2cncnc2)cc1)/c1ccccc1 (stereo partly drawn)	i
C[C@@H]1CCCCO[C@@H](CN(C)C(=O)c2ccncc2)[C@@H](C)CN([C@H](C)CO)C(=O)c2cc(NS(=O)(=O)c3cn(C)cn3)ccc2O1	i
C[C@@H]1CN([C@H](C)CO)C(=O)c2cc(NC(=O)Nc3ccc(C(F)(F)F)cc3)ccc2O[C@H]1CN(C)Cc1ccc(C(=O)O)cc1	i
C[C@H](CO)N1C[C@H](C)[C@H](CN(C)C(=O)Nc2ccc3c(c2)OCO3)OCCCC[C@H](C)Oc2ccc(NC(=O)NC3CCCCC3)cc2C1=O	i

Reprinted from above, 2 compounds:
SMILES	FGF22 binding
CO[C@H]1CN(C)C(=O)c2cc(NS(=O)(=O)CC(F)(F)F)ccc2OC[C@H](C)NC[C@H]1C	i
C[C@H]1CN([C@@H](C)CO)C(=O)c2cc(NC(=O)Nc3cccc4ccccc34)ccc2O[C@@H]1CN(C)C(=O)Nc1ccc(C(F)(F)F)cc1	i

Next part
SMILES	FGF22 binding
CC(=O)N(C)C[C@@H]1Oc2cc(C#CC(C)C)ccc2S(=O)(=O)N([C@@H](C)CO)C[C@H]1C	i
C[C@H](CO)N1C[C@H](C)[C@@H](CN(C)S(=O)(=O)c2ccccc2)Oc2ccc(NS(=O)(=O)c3ccc(Cl)cc3)cc2C1=O	i
C[C@@H](O)C#Cc1ccc2c(c1)O[C@H](CN(C)C(=O)CC1CC1)[C@@H](C)CN([C@@H](C)CO)S2(=O)=O	i
C[C@@H]1CN([C@@H](C)CO)C(=O)c2c(c3ccccc3n2C)-c2ccccc2CO[C@H]1CN(C)S(=O)(=O)Cc1ccccc1	i
CC(C)NC(=O)N(C)C[C@@H]1OCCCC[C@@H](C)Oc2ccc(NS(C)(=O)=O)cc2C(=O)N([C@H](C)CO)C[C@@H]1C	i
C[C@H]1CN([C@@H](C)CO)C(=O)c2cccc(NC(=O)CCCCCC(=O)Nc3ccccc3N)c2O[C@@H]1CN(C)Cc1ccc(Oc2ccccc2)cc1	i
O=S(=O)(N[C@H]1CC[C@H](CCn2cc(-c3ccccc3F)nn2)O[C@H]1CO)c1ccc(F)cc1	i
O=C(Cc1ccccc1)N[C@@H]1CC[C@H](CC(=O)N2CCOCC2)O[C@H]1CO	i
O=C(N[C@H](C(=O)N1CCC[C@H]1C(=O)NC1CCCC1)c1ccccc1)c1ccc(Cl)c(Cl)c1	i
C[C@H](CO)N1C[C@H](C)[C@@H](CN(C)Cc2cncnc2)Oc2ncc(C#CC3CCCCC3)cc2C1=O	i
O=C(C1CC1)N1CCCCN2[C@H](CO)[C@@H](c3ccc(C#CC4(O)CCCC4)cc3)[C@@H]2C1	i
CC(C)NC(=O)Nc1ccc2c(c1)CC(=O)N([C@@H](C)CO)C[C@@H](C)[C@@H](CN(C)S(=O)(=O)c1ccc(Cl)cc1)O2	i
C[C@H](CO)N1C[C@H](C)[C@@H](CN(C)Cc2ccc3c(c2)OCO3)Oc2c(NC(=O)c3cnccn3)cccc2C1=O	i
CC(C)CC#Cc1ccc([C@@H]2[C@H]3CN(C(=O)Nc4ccccc4)CCCCN3[C@H]2CO)cc1	i
CCCNC(=O)N(C)C[C@H]1Oc2cc(C#CCC(C)C)ccc2S(=O)(=O)N([C@@H](C)CO)C[C@H]1C	i
COc1ccc(S(=O)(=O)Nc2ccc3c(c2)C(=O)N([C@H](C)CO)C[C@H](C)[C@H](CN(C)S(=O)(=O)c2cn(C)cn2)OCCCC[C@H](C)O3)cc1	i
COc1cccc(CNC(=O)C[C@@H]2C=C[C@H](NC(=O)C3CCOCC3)[C@@H](CO)O2)c1	i
C[C@@H]1CN([C@@H](C)CO)C(=O)Cc2cc(N(C)C)ccc2O[C@@H]1CN(C)S(=O)(=O)c1ccccc1	i
O=C(C[C@H]1CC[C@@H]2[C@H](COC[C@@H](O)CN2C(=O)c2cccnc2)O1)NC1Cc2ccccc2C1	i
Cc1noc(C)c1S(=O)(=O)Nc1ccc2c(c1)C(=O)N([C@H](C)CO)C[C@H](C)[C@@H](CN(C)C(=O)Nc1ccccc1)OCCCC[C@@H](C)O2	i
CC1(C)CC(=O)C=C(c2ccccc2-c2cccc(C(N)=O)c2)C1=O	i
C[C@@H](NC(=O)C[C@@H]1CC[C@@H]2[C@H](COC[C@H](O)CN2Cc2cc(F)ccc2F)O1)c1ccccc1	i
CNC[C@H]1Oc2c(NC(=O)Nc3ccc4c(c3)OCO4)cccc2C(=O)N([C@H](C)CO)C[C@@H]1C	i
O=C(CC1CC1)N[C@H]1CC[C@@H](CCNS(=O)(=O)c2ccc(F)cc2)O[C@@H]1CO	i
COc1ccccc1C(=O)N1C[C@H]2[C@@H](c3ccccc31)[C@@H](CO)N2C(=O)Cc1ccccc1	i
C[C@@H]1CCCCO[C@H](CN(C)CC2CCCCC2)[C@H](C)CN([C@@H](C)CO)C(=O)c2cc(NS(=O)(=O)c3cn(C)cn3)ccc2O1	i
O=C(Nc1ccc(Cl)cc1)N[C@H]1CC[C@H](CCNS(=O)(=O)c2ccccc2F)O[C@@H]1CO	i
CS(=O)(=O)c1cccc(OCCCN2CCC(C(O)(c3ccccc3)c3ccccc3)CC2)c1	i
CCCC(=O)Nc1ccc2c(c1)OC[C@@H](C)N(C(=O)c1ccncc1)C[C@@H](C)[C@@H](OC)CN(C)C2=O	i
C/C=C/c1ccc([C@@H]2[C@H]3CN(C(=O)Nc4ccccc4F)CCCCN3[C@H]2CO)cc1	i
C[C@@H]1CCCCO[C@@H](CN(C)Cc2ccc3c(c2)OCO3)[C@H](C)CN([C@@H](C)CO)C(=O)c2cc(NC(=O)CCC(F)(F)F)ccc2O1	i
C=CCN(CC=C)C[C@@H]1CSCCS(=O)(=O)N1	i
COCC(=O)Nc1ccc2c(c1)[C@H]1C[C@H](CC(=O)NCCc3ccccc3)O[C@H](CO)[C@H]1O2	i
CC(=O)OCC(COC(C)=O)(CN1C(=O)c2ccccc2C1=O)CN1C(=O)c2ccccc2C1=O	i
Cc1noc(C)c1NC(=O)Nc1ccc2c(c1)C(=O)N([C@@H](C)CO)C[C@H](C)[C@H](CN(C)C)OCCCC[C@H](C)O2	i
CCCNC(=O)C[C@@H]1CC[C@@H]2[C@H](COC[C@@H](O)CN2C(=O)CC)O1	i
CNC[C@@H]1Oc2cc(-c3ccccc3F)ccc2S(=O)(=O)N([C@H](C)CO)C[C@H]1C	i
C[C@H](O)C#Cc1ccc2c(c1)O[C@@H](CN(C)C(=O)C1CC1)[C@@H](C)CN([C@@H](C)CO)S2(=O)=O	i
Cc1noc(C)c1S(=O)(=O)Nc1ccc2c(c1)C(=O)N([C@H](C)CO)C[C@H](C)[C@@H](CN(C)C(=O)Nc1cccc3ccccc13)O2	i
C[C@H]1CN([C@@H](C)CO)C(=O)c2cccc(NC(=O)C3CCCCC3)c2O[C@H]1CN(C)S(=O)(=O)c1cccs1	i
CNC[C@@H]1Oc2ccc(NS(=O)(=O)c3ccccc3)cc2CC(=O)N([C@@H](C)CO)C[C@H]1C	i
C[C@@H]1CN([C@@H](C)CO)C(=O)c2cc(C#CCN(C)C)cnc2O[C@H]1CN(C)C(=O)c1ccc(F)cc1	i
CC(C)CC#Cc1cnc2c(c1)C(=O)N([C@H](C)CO)C[C@H](C)[C@@H](CN(C)CC1CCOCC1)O2	i
COc1ccc(S(=O)(=O)Nc2ccc3c(c2)C(=O)N([C@@H](C)CO)C[C@H](C)[C@@H](CN(C)C(=O)Nc2ccccc2)OCCCC[C@H](C)O3)cc1	i
CN(C)C(=O)c1cccc(-c2ccc3c(c2)[C@H]2[C@H](CCN2C(=O)c2cnccn2)[C@H](CO)N3)c1	i
NC(=O)[C@@H]1[C@H]2C(=O)O[C@H](c3ccccc3)[C@H](c3ccccc3)N2[C@H](c2ccc(O)cc2)[C@@]12C(=O)Nc1ccc(C#CC3(O)CCCCCC3)cc12	i
O=C(NC1CCCCC1)[C@H]1N[C@H]2c3ccc(-c4cccc(F)c4)c(=O)n3C[C@H]2[C@@H]1CO	i
C[C@@H]1CN([C@@H](C)CO)C(=O)c2cc(C#Cc3cccnc3)cnc2O[C@@H]1CN(C)Cc1ccc(F)cc1	i

High-throughput results from PubChem BioAssay.
